# Assay outcomes from PubChem BioAssay.
# H5N1 antiviral: MDCK cell protection from H5N1 avian flu; hit rate 0.07% among 96,000; AID 740, 2007; inhibition, % at 50 µM; cytopathic effect, luminescence, 72 h; stronger effect = higher value; no value below 0 was filed and about half of the inactive calls have no number; reference of the scale not given here; in the data active means inhibition above about 25%
# * marks the source's active call; other numbers are inactive results; i = inactive.
no.	structure	H5N1 antiviral
1	COc1ccc(-n2c(C)nc3c(cnn3-c3ccc(Cl)cc3)c2=O)cc1	1.2
2	CN(C)S(=O)(=O)N1CCN(C(=O)c2cccc(Br)c2)CC1	0.2
3	COc1ccccc1Nc1nc(N)nc(CN2CCN(Cc3ccccc3)CC2)n1	i
4	O=C(Nc1ccccc1C(F)(F)F)c1cc(-c2ccc(O)cc2)on1	i
5	O=C(CSc1nnnn1-c1cccc2c1CCCC2)N1CCOCC1	2.5
6	C=CCN1C(=Nc2ccccc2)SC/C1=C\C(=O)OC	0.8
7	CCOC(=O)CCCCC(=O)NC(CO)C(=O)NC (configuration not stated)	i
8	CCCn1nc2ccccc2c1P(=O)(N1CCOCC1)N1CCOCC1	0.1
9	CN1CCN(c2ccc(N)cc2)CC1	0.9
10	CCN1C(=O)C(CC(=O)Nc2ccc(OC)cc2)N(Cc2cccs2)C1=S (configuration not stated)	i
11	COc1cc(-c2nc(-c3ccncc3)no2)cc(OC)c1OC	0.6
12	Cc1cc(=O)oc2cc(OCc3cc4c(cc3Cl)OCO4)ccc12	i
13	N#Cc1ccc(Cl)cc1NC(=O)COC(=O)c1ccc2c(c1)OCCO2	1.0
14	CCOC(=O)c1ccc(NC(=O)Cn2nnc(-c3ccc(C)cc3)n2)cc1	0.1
15	Cc1oc(-c2ccc(Cl)cc2)nc1CN1CCCC(C(=O)NCCCN2CCOCC2)C1 (configuration not stated)	0.0
16	Cc1nc(Nc2nc3ccccc3o2)nc2c1CCC2	i
17	COc1ccc(-c2nnc(SCC(=O)NCc3cccs3)n2C(C)C)cc1	i
18	CCCCN(CC)CCCNC(=O)Cn1nc(Cc2ccncc2)c2ccccc2c1=O	0.3
19	Cc1ccc2nsnc2c1S(=O)(=O)NCCc1c(C)[nH]c2ccc(F)cc12	1.2
20	Cc1ccc2c(c1)/C(=N/OC(=O)c1ccc(F)cc1)CCS2	i
21	COc1ccc(C(=O)CSc2n[nH]c(-c3ccco3)n2)cc1	i
22	O=C(NCCN1CCCCC1)c1cc2ccccc2[nH]1	i
23	CCCN1C(=O)c2ccc(C(=O)Nc3nccs3)cc2C1=O	i
24	COC(=O)C(C(C)=O)C1=C/C(=N\S(=O)(=O)c2ccc(C)cc2)c2ccccc2C1=O (configuration not stated)	i
25	COC(=O)c1ccccc1N=C(SC)N(C)C	i
26	CCn1c(SCC(=O)NCc2ccco2)nnc1-c1c[nH]c2ccccc12	0.5
27	CCC(=O)n1nc(-c2ccco2)nc1SCc1ccccc1	i
28	CC(NC(=O)NCCCn1ccnc1)(C(F)(F)F)C(F)(F)F	1.7
29	CC(C)(C)n1nnnc1CN1CCN(C2CCCC2)CC1	0.7
30	Cc1ccc(C(=O)Nc2cc(=O)n(C)c(=O)n2C)cc1C	0.6
31	Cn1c(C(=O)N2CCN(Cc3ccc4c(c3)OCO4)CC2)cc2c(=O)n(C)c3ccccc3c21	0.6
32	CC(C(=O)Nc1ccccc1)c1ccc(-c2ccccc2)c(F)c1 (configuration not stated)	0.8
33	Cc1ccc(N2C(=O)N(CC(=O)N3CCCc4ccccc43)C(=O)C2C)cc1 (configuration not stated)	0.8
34	COC(=O)Nc1sc2c(c1C(=O)NCc1ccco1)CCCC2	0.1
35	O=C(CCN1C(=O)c2ccccc2C1=O)Nc1ccc(F)cc1	0.1
36	O=[N+]([O-])c1ccc(Cl)c(/C=N/NC(=S)Nc2ccccc2)c1	1.4
37	O=C(Nc1nnc(COc2ccc(Cl)cc2)s1)C1CCCO1 (configuration not stated)	i
38	O=C(CSc1ncc(-c2ccccc2)nn1)NCc1ccco1	18.3
39	CCN(CC)CCNC(=O)c1ccc(Cl)c(S(=O)(=O)Nc2ccccc2OC)c1	i
40	O=C1CCCc2c1cc(C(=O)NCCCN1CCOCC1)c(=O)n2-c1ccc(Cl)cc1	2.8
41	CCCOC(=O)CSC1=C(C#N)C(c2ccccc2OCC)C(C#N)C(=O)N1 (configuration not stated)	0.1
42	COc1ccc(S(=O)(=O)N2c3ccccc3OCC2c2ccccc2)cc1 (configuration not stated)	1.6
43	CCOC(=O)Cn1cnc2c(nnn2Cc2ccc(Cl)cc2)c1=O	0.2
44	CSc1ncc(/C=C2/C(=O)NC(=O)N(C3CCCCC3)C2=O)cn1	i
45	CCC1(CC)NC(=O)NC1=O	0.7
46	COC(=O)[C@H](C)NC(=O)Nc1ccc(OC)cc1OC	1.7
47	CN1CCN(C(=O)CC23CC4CC(CC(C4)C2)C3)CC1	0.1
48	Cc1cccc(Cn2cnc3c(nnn3Cc3ccc(F)cc3)c2=O)c1	i
49	CCOC(=O)c1[nH]c(C)c(C(=O)NC(C)CC)c1C (configuration not stated)	0.2
50	CC(Oc1ccc(-c2ccccc2)cc1)C(=O)N1CCOCC1 (configuration not stated)	i
51	CCN(C(=O)CSc1nc(-c2ccccc2)c(-c2ccccc2)[nH]1)C1CCS(=O)(=O)C1 (configuration not stated)	1.1
52	CCc1ccc(NC(=O)CN(c2cccc(C)c2)S(C)(=O)=O)cc1	i
53	Brc1ccc(CSc2nnc(-c3cnccn3)n2Cc2ccco2)cc1	i
54	N#Cc1c(C(F)(F)F)cc(-c2ccccc2)nc1SCC(=O)N1CCOCC1	0.1
55	CCC(=O)Nc1sccc1C(=O)OC	19.4
56	Cc1ccc(OCC(=O)Nc2ccc(N(C)C)cc2)cc1	i
57	COC(=O)c1[nH]c2cccc(C)c2c1NC(=O)CN1CCN(C(=O)c2ccco2)CC1	0.3
58	CCn1ccc(C(=O)Nc2ccc(Cl)cn2)n1	1.8
59	O=C(COc1ccc(S(=O)(=O)N2CCOCC2)cc1)Nc1ccc(Cl)c(C(F)(F)F)c1	i
60	CC1Cc2ccccc2N1C(=O)c1cnc2sccn2c1=O (configuration not stated)	0.5

# Next part:
no.	structure	H5N1 antiviral
61	COc1cccc(N=C2SC(C(=O)Nc3ccccc3F)CC(=O)N2C)c1 (configuration not stated)	i
62	CC(C)C(OC(=O)CN1C(=O)COc2ccccc21)C(=O)NC1CCCC1 (configuration not stated)	0.8
63	O=C(OCc1ccccc1)C1CCCN1C(=O)c1cccs1 (configuration not stated)	1.1
64	CCN(CC)CCOC(=O)c1c(C)oc2ccc(O)cc12	0.7
65	Cc1cccc2cc(C(c3nnnn3CC3CCCO3)N3CCc4ccccc4C3)c(=O)[nH]c12 (configuration not stated)	i
66	CC1=C(C(=O)OCc2ccccc2)C(c2ccc(C)o2)C2=C(CCCC2=O)N1 (configuration not stated)	0.2
67	O=C(CSc1nc2nc[nH]c2c(=O)[nH]1)NC1CCCCC1	i
68	Cc1nc(C(=O)Nc2cccc(Cl)c2)nn1-c1cc(OC(C)C)c(Cl)cc1Cl	i
69	O=C(c1ccccn1)N1CCN(C(=O)c2ccccn2)CC1	i
70	O=C(Cn1cc2c(n1)CCCCC2)Nc1c(F)c(F)cc(F)c1F	i
71	COc1cc(N2CCCC2)c(OC)cc1/C=c1/sc2nc3ccccc3n2c1=O	i
72	CC1CC(C)CN(c2cc(=O)n(Cc3ccc(F)cc3)c(=O)[nH]2)C1 (configuration not stated)	i
73	CNC(=O)CN1C(=O)NC2(CCc3ccccc32)C1=O (configuration not stated)	i
74	COc1ccc(C2Nc3ccccc3C(=O)N2c2ccc(C)cc2)cc1Cn1cc([N+](=O)[O-])cn1 (configuration not stated)	i
75	CC(=O)Nc1nc2c(c3c1c(=O)oc1ccccc13)CC(C)CC2 (configuration not stated)	i
76	CCOC(=O)c1c(NC(=S)Nc2ccccc2)sc2c1CCCCC2	i
77	O=C(C1CCC1)N1CCc2cc(S(=O)(=O)Nc3ccc4c(c3)OCCO4)ccc21	0.1
78	CN(C)CCCOC(=O)c1ccccc1Cl	i
79	O=C(CSCc1ccccc1)N1CCN(c2ccc(F)cc2)CC1	1.3
80	Cn1c(=O)oc2cc(S(=O)(=O)N3CCC(C(=O)NCC4COc5ccccc5O4)CC3)ccc21 (configuration not stated)	i
81	Cc1ccc(S(=O)(=O)N2CCC(C(=O)Nc3nnc(C4CCCC4)s3)CC2)cc1	1.1
82	Cc1ccc2nc(NCCCNC(=O)c3cnccn3)c(C#N)cc2c1	5.9
83	O=C(NC1CCCC1)C(c1cccs1)N(Cc1ccco1)C(=O)c1csnn1 (configuration not stated)	0.8
84	C=CCNc1sc(C(=O)c2ccccc2)c(N)c1C#N	3.0
85	CCN(CC)C(=O)C1CC(=O)OC1(C)C (configuration not stated)	i
86	COCC(=O)N(CCc1ccc(OC)cc1)Cc1nc2ccccc2c(=O)[nH]1	0.9
87	COc1ccc(S(=O)(=O)NC(C)C(=O)Nc2ccccc2C(F)(F)F)cc1 (configuration not stated)	i
88	COc1ccc(CC(NC(C)=O)C(=O)NC2CCN(c3nnnn3-c3ccccc3)CC2)cc1 (configuration not stated)	i
89	O=C(Nn1cnnc1)c1cc2c(s1)CCCC2	0.6
90	CC1CN(c2ncnc3c2oc2ccccc23)CC(C)O1 (configuration not stated)	1.8
91	CCOC(=O)c1cnc2c(cnn2C)c1NCCCN(C)C	0.9
92	O=C(CSc1nnnn1-c1ccccc1)Nc1ccc(N2CCOCC2)c(Cl)c1	3.1
93	CCOC(=O)CN1C(=O)C(O)(C2CCc3ccccc3C2=O)c2ccccc21 (configuration not stated)	i
94	CCOC(=O)CC(=O)CSc1nc(-c2ccccc2)cc(-c2ccc(Cl)cc2)c1C#N	1.1
95	CSCC[C@H](NC(=O)OC(C)(C)C)c1nnc(SCC(=O)N(C)C)o1	i
96	CCCCN1CC(C(=O)NCc2ccc(C)cc2)CC1=O (configuration not stated)	0.5
97	CC(=O)c1cccc(NC(=O)NC2CCCCC2)c1	0.5
98	Cc1nn(-c2nnc(C)c(=O)[nH]2)c(C)c1SCC(=O)Nc1ccc(F)cc1	0.8
99	Cc1ccc(-n2c(SCc3ccc(C#N)cc3)nnc2-c2ccccn2)cc1	0.6
100	CCCCC1(C)OC(=O)C(=Cc2ccc(N(CC)CC)cc2)C(=O)O1 (configuration not stated)	i
101	Cc1nc2ncnn2c(C)c1Cc1ccccc1Cl	2.6
102	Cc1ccc(-c2nc3ccccn3c2NCc2ccc3c(c2)OCO3)cc1	i
103	COc1cc(-c2cc(C(=O)O)c3c(OC)c(OC)c(OC)cc3n2)ccc1O	0.5
104	Cn1cnnc1SCCn1c(N2CCCCC2)nc2c1c(=O)[nH]c(=O)n2C	0.8
105	Cc1ccc(C(=O)O)cc1NC(=S)NC(=O)C(c1ccccc1)c1ccccc1	0.4
106	Cc1cccc(OCC(=O)Nc2ccc3c(c2)nc(CCN2CCN(C)CC2)n3C)c1	i
107	Cc1c(NC(=O)c2cc3ccccc3o2)c(=O)n(-c2ccccc2)n1C	i
108	CCN(CC(O)Cn1c2ccccc2c2ccccc21)S(=O)(=O)c1ccc(F)cc1 (configuration not stated)	i
109	CCn1c(SCc2ccc(Cl)cc2Cl)nc2nc3c(cc2c1=O)CCCC3	i
110	Nn1c(COc2cccc(Br)c2)nnc1SCC(=O)N1CCc2ccccc2C1	0.1
111	COc1ccc(Cl)cc1NC(=O)c1nc2nc(C)cc(C(F)F)n2n1	3.8
112	CCOC(=O)c1nn(-c2ccccc2)c(C)c1C(C)=O	0.4
113	N#CC1=C(N)C(C#N)(C#N)C(c2cccnc2)C2CCCC=C12 (configuration not stated)	1.1
114	c1ccc(OCc2nn3c(C4CCCCC4)nnc3s2)cc1	i
115	O=C(CCNS(=O)(=O)c1cccs1)N1CCc2ccccc2C1	0.3
116	O=C1CCSc2ccc(Cl)cc2N1Cc1ccc(Cl)cc1	2.1
117	O=C(Cn1ncc2c1-c1ccccc1OC2)N1CCN(Cc2ccc3c(c2)OCO3)CC1	0.7
118	COC(=O)c1cccc(NC(=O)CSc2nc(=O)cc(N)n2-c2ccccc2)c1	0.3
119	O=C(c1ccccc1F)c1cn(Cc2ccccc2)c2ccccc12	2.3
120	COC(=O)c1cc(NC(=O)c2cccc(C(F)(F)F)c2)c(=O)oc1C/C=N/OCc1cccc(Cl)c1Cl	i

# By substructure: those above with a furan ring, fused or not (twelve)
no.	structure	H5N1 antiviral
21	COc1ccc(C(=O)CSc2n[nH]c(-c3ccco3)n2)cc1	i
26	CCn1c(SCC(=O)NCc2ccco2)nnc1-c1c[nH]c2ccccc12	0.5
27	CCC(=O)n1nc(-c2ccco2)nc1SCc1ccccc1	i
34	COC(=O)Nc1sc2c(c1C(=O)NCc1ccco1)CCCC2	0.1
38	O=C(CSc1ncc(-c2ccccc2)nn1)NCc1ccco1	18.3
53	Brc1ccc(CSc2nnc(-c3cnccn3)n2Cc2ccco2)cc1	i
57	COC(=O)c1[nH]c2cccc(C)c2c1NC(=O)CN1CCN(C(=O)c2ccco2)CC1	0.3
64	CCN(CC)CCOC(=O)c1c(C)oc2ccc(O)cc12	0.7
66	CC1=C(C(=O)OCc2ccccc2)C(c2ccc(C)o2)C2=C(CCCC2=O)N1 (configuration not stated)	0.2
83	O=C(NC1CCCC1)C(c1cccs1)N(Cc1ccco1)C(=O)c1csnn1 (configuration not stated)	0.8
90	CC1CN(c2ncnc3c2oc2ccccc23)CC(C)O1 (configuration not stated)	1.8
107	Cc1c(NC(=O)c2cc3ccccc3o2)c(=O)n(-c2ccccc2)n1C	i

# Continued:
no.	structure	H5N1 antiviral
121	COc1ccc(/C=C/c2ccncc2)cc1	0.3
122	Cc1ccc(S(=O)(=O)Nc2cc(C(=O)Nc3cc(C)cc(C)c3)ccc2Cl)cc1	0.5
123	CC(NC(=O)CSc1nnc(COc2ccccc2)o1)c1ccccc1 (configuration not stated)	0.8
124	CCOc1ccccc1NC(=O)N1CCC(c2nc3ccc(C)cc3[nH]2)CC1	i
125	CCCN1CCN(C(c2cc3cc(OCC)ccc3[nH]c2=O)c2nnnn2C2CCCCC2)CC1 (configuration not stated)	i
126	CC(C)(C)NC(=O)NC(=O)COC(=O)CCC1CCCCC1	0.6
127	Fc1ccc(Oc2nc(-c3ccccc3)nnc2C(F)(F)F)cc1	i
128	COc1ccc(-c2nnc(SCC(=O)Nc3ncc(C)s3)n2-c2ccccc2)cc1OC	i
129	COc1cccc(-n2c(C)nc3c(cnn3-c3ccc(C)cc3)c2=O)c1	i
130	CCn1c(=O)cc(OCC(=O)NCc2cccnc2)c2ccccc21	0.7
131	COCCNC(=O)c1c(N)n(-c2cccc(C)c2)c2nc3ccccc3nc12	i

# Only part of the results is shown; rates above refer to the full screens.
